# From PubChem
# STK33 inh: blocks human STK33 kinase activity | purified STK33, MBP phosphorylation, ADP-Glo luminescence | inhibition, % at 10 µM | actives 0.073% (n = 320,000) | AID 2661;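 active = inhibition at or above 25%, using the most active replicate where run in duplicate; inactive = inhibition below 25%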
# Target sequence (Q9BYT3 whole entry, looked up): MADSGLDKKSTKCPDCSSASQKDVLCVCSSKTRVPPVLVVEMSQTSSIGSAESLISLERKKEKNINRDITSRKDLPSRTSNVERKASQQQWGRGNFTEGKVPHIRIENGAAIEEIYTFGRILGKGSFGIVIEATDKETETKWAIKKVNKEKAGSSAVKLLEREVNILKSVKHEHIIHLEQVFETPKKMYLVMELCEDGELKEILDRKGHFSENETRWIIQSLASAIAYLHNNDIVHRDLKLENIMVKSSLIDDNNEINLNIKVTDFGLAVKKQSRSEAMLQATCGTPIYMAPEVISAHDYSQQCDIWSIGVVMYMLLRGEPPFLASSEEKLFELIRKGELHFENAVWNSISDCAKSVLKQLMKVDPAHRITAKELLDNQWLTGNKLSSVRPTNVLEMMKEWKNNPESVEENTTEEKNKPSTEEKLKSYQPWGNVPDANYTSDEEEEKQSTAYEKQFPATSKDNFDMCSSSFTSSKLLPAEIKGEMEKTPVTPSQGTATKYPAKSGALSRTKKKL
# Starred values were filed as active, the others as inactive. An excerpt, and most or all hits are left out here.
SMILES,STK33 inh
CC(C)Oc1ccc(/C(O)=C2/C(=O)C(=O)N(CCN3CCOCC3)C2c2ccccc2)cc1 (stereo not drawn),-0.6
NC(=O)CC(NC(=O)Cc1ccc(Br)cc1)c1ccc(NCC2CC2)c([N+](=O)[O-])c1 (stereo not drawn),-0.6
COc1nc(C)nc2c1sc(=S)n2C,-0.3
CN(c1ccc(C(=O)NCCSC(C)(C)C)cc1)S(C)(=O)=O,1.8
CCOC(=O)c1c(NC(=O)CS(=O)(=O)c2cn(CC)c3ccccc23)sc2c1CCCC2,-3.1
COc1cc(C(=O)NCCC(=O)NC(C)C)cc(OC)c1OC,-1.5
Cc1ccc(CNC(=O)C(=O)NCCC2CCCCN2S(=O)(=O)c2ccc(C)cc2)cc1 (stereo not drawn),1.3
CCOC(=O)c1c(C)n(C)c2ccc(O)c(CN(C)C)c12,-0.8
CCOC(=O)CSc1nnc(-c2ccoc2C)n1-c1ccc(OCC)cc1,-2.3
O=C(c1ccc(NS(=O)(=O)c2ccc3[nH]c(=O)[nH]c3c2)cc1)N1CCN(c2ccccc2O)CC1,-1.1
COc1cc(OC)c(C(=O)OC(C)C(=O)Nc2cccc(C(F)(F)F)c2)cc1OC (stereo not drawn),0.8
O=c1[nH]c2ccccc2nc1C(F)(F)F,-0.7
OCCCCNCc1ccc(OCc2ccccc2Cl)cc1,-0.2
NS(=O)(=O)c1ccc(CNC(=O)c2cc(-c3cccnc3)nc3ccc(Br)cc23)cc1,0.7
Cc1cc(N2CCN(S(=O)(=O)c3ccc(Cl)c(Cl)c3)CC2)c2ccccc2n1,-7.0
CC(C)C(=O)NNC(=O)c1csc(CS(=O)(=O)c2ccc(Cl)cc2)n1,0.9
N#Cc1cccc(-n2c(-c3ccccc3)nnc2-c2ccccc2)c1C#N,-0.9
CN(C)CCNC(=O)CN1C(=O)CSc2ccc(S(=O)(=O)N3CCCCC3)cc21,0.4
COc1ccc(NCC(=O)N/N=C/c2ccc3c(c2)OCCO3)cc1,14
O=C(/C=C/c1ccccc1Cl)N(c1ccccn1)C1CCCCC1,-3.0

# Reprinted at random: 6 records from the list.
SMILES,STK33 inh
OCCCCNCc1ccc(OCc2ccccc2Cl)cc1,-0.2
N#Cc1cccc(-n2c(-c3ccccc3)nnc2-c2ccccc2)c1C#N,-0.9
O=C(/C=C/c1ccccc1Cl)N(c1ccccn1)C1CCCCC1,-3.0
CC(C)C(=O)NNC(=O)c1csc(CS(=O)(=O)c2ccc(Cl)cc2)n1,0.9
CN(C)CCNC(=O)CN1C(=O)CSc2ccc(S(=O)(=O)N3CCCCC3)cc21,0.4
COc1cc(OC)c(C(=O)OC(C)C(=O)Nc2cccc(C(F)(F)F)c2)cc1OC (stereo not drawn),0.8

# Other records
SMILES,STK33 inh
CC1CCC(NC(=O)c2ccc(NC(=O)CC3SC(N4CCCC4)=NC3=O)cc2)CC1 (stereo not drawn),0.0
Cc1ccc(/C=N/NC(=O)CSc2nnc(-c3ccc(Cl)cc3)n2-c2ccccc2)o1,-0.8
O=C(Cn1cnc2c(nnn2Cc2ccc(F)cc2)c1=O)NCc1ccc2c(c1)OCO2,0.6
CCOC(=O)c1cnc2c(OC)cccc2c1NCc1cccnc1,-0.7
O=C(O)c1nn(CC(=O)N2CCCCCC2)c(=O)c2ccccc12,-0.8
COCC(=O)Nc1ccc([N+](=O)[O-])cc1OC,-1.3
COCc1nnc(NC(=O)c2ccccc2[N+](=O)[O-])s1,-0.1
N#CC1=C(SCC(=O)NCc2ccccc2)NC(=O)CC1c1ccco1 (stereo not drawn),-2.3
CCN1C(=O)[C@H]2[C@@H](c3ccc(C)cc3)N3C(=O)N(c4cccc(Br)c4)C(=O)[C@@]3(Cc3ccccc3)[C@H]2C1=O,0.6
COc1ccc(NS(=O)(=O)c2nnc(NC(=O)c3ccccc3F)s2)cc1,-2.3
CCCCS(=O)c1snnc1C (stereo not drawn),-0.4
O=[N+]([O-])c1ccccc1CN1CCN(S(=O)(=O)Cc2ccccc2)CC1,1.4
COc1ccc(OC)c(-c2c3cc(O)c(=O)cc-3oc3cc(O)c(O)cc23)c1,2.0
O=C(C1COc2ccccc2O1)N1CCN(c2ccccn2)CC1 (stereo not drawn),-2.6
CN1CCN(C(=S)NC(=O)/C=C/c2ccccc2)CC1,-1.5
Cc1cccc(NC(=O)C2CC(=O)N/C(=N/N=C/c3ccco3)S2)c1 (stereo not drawn),-1.2
CC(C)c1c(C(=O)N/N=C/c2ccco2)nnn1-c1nonc1N,-1.2
Cc1nn(C)c(C)c1S(=O)(=O)NCc1cccs1,-1.5
O=C1c2oc3ccc(F)cc3c(=O)c2C(c2ccc(F)cc2)N1CCCN1CCOCC1 (stereo not drawn),0.5
COc1ccc(CCNC(=O)CS(=O)(=O)Cc2nc(-c3ccc(C)cc3)oc2C)cc1OC,-1.7
O=C(CCNC(=O)c1ccc([N+](=O)[O-])cc1)NCc1ccco1,0.5
CCOC(=O)c1nc(C)c(C(C)=O)s1,-0.2
COc1cc(/C=C(\C#N)C(=O)Nc2ccccn2)ccc1O,-0.3
O=C(NCC1CCCO1)C1CCN(C2CCN(Cc3ccco3)CC2)CC1 (stereo not drawn),-2.5
O=C(c1ccccc1F)N1CCOCC1,-1.0
O=C(CCC(=O)c1cccs1)NCc1ccncc1,-0.9
CCOc1cc(/C=N/NC(=O)c2ccncc2)cc(Cl)c1OS(C)(=O)=O,1.2
CSc1nc(N2CCN(C)CC2)c2c(c1C#N)CC(C)(C)OC2,-0.6
CC(C)C(=O)Nc1cccc(C(=O)Nc2ccc3c(c2)OCO3)c1,-0.8
C=CCn1c(SCC(=O)O)nc2sc(CC)cc2c1=O,0.2

# Reprinted from the part before: 3 compounds; new compounds follow.
SMILES,STK33 inh
CSc1nc(N2CCN(C)CC2)c2c(c1C#N)CC(C)(C)OC2,-0.6
CC(C)C(=O)Nc1cccc(C(=O)Nc2ccc3c(c2)OCO3)c1,-0.8
C=CCn1c(SCC(=O)O)nc2sc(CC)cc2c1=O,0.2
COc1ccc(NC2=C(Cl)C(=O)N(CCc3ccccc3)C2=O)c(OC)c1,0.6
Cc1ccc(NC(=O)C2CC(=O)NC(N3CCc4ccccc43)=N2)cc1 (stereo not drawn),-0.1
O=C(Nc1ccccc1-c1nc2ccccc2s1)c1cccnc1,-1.6
O=C1c2cnccc2CN1Cc1ccccc1,1.0
O=C(CCSCc1ccccc1Cl)N1CCN(c2ccccn2)CC1,0.1
O=C(O)c1ccc(Nc2nc(-c3ccccc3)nc3ccccc23)cc1,3.9
NN/C(=C\[N+](=O)[O-])Nc1ccccc1,-2.9
Cc1ccc(NS(=O)(=O)c2cccc(C(=O)NCCCn3ccnc3)c2)cc1,1.5
CS/C(=N\N(C)C(N)=O)c1ccccc1,-1.6
COCCNc1nc2ccccc2nc1NS(=O)(=O)c1ccc(C)cc1C,6.8
COc1ccc(NC(=O)c2cccc(F)c2)cc1Cl,0.3
COc1cc(Cl)c(C)cc1NC(=O)COC(=O)C1=COCCO1,0.8
Cn1c(=O)c2ncn(CC(=O)N/N=C/c3ccco3)c2n(C)c1=O,-0.4
COc1cc(C)c(C(C)C)cc1S(=O)(=O)NC1CC(C)(C)NC(C)(C)C1,-1.4
C=CCNc1oc(Cc2cccc3ccccc23)nc1C#N,-0.6
COc1ccccc1-c1noc(-c2ccccc2C(=O)N2CCOCC2)n1,-0.1
COC(=O)c1ccc2nc(NC(=O)CSCC(=O)OCC(=O)c3ccccc3)sc2c1,0.6
COc1ccc(-n2cccc2C=O)cc1OC,-0.1
Brc1cccc(-c2nnc(SCc3ccon3)n2-c2ccccc2)c1,-2.1
C[C@H](NC(=O)OC(C)(C)C)c1nnc(SCC(=O)c2ccc(Cl)cc2)o1,-0.4
CCc1nnc(NS(=O)(=O)c2ccc(NC(=O)C(c3ccccc3)c3ccccc3)cc2)s1,-2.0
Cc1sc(NC(=O)CSc2nnc(-c3ccc(F)cc3)o2)c(C#N)c1C,-0.8
Cc1ccc(OCC(=O)Nc2ccc(S(=O)(=O)Nc3ccccn3)cc2)cc1,-0.7
O=C(O)CC(C(=O)O)c1ccc(OCCCCOc2ccc(C(CC(=O)O)C(=O)O)cc2)cc1 (stereo not drawn),-1.1
O=C(Cn1ncc2c1-c1ccccc1OC2)Nc1cccc(Cl)c1,3.3
Cc1c(S(=O)(=O)Nc2ccc(Br)cc2)c(=O)n(C)c(=O)n1C,1.0
CON(C)c1nc(OCCNC(=O)OCc2ccc(Cl)cc2Cl)nc(N(C)C)n1,-1.2
CSCC[C@H](NC(=O)COc1ccc(Cl)cc1)c1nc2ccccc2[nH]1,-2.8
COc1ccc(C(C#N)N2N=C(C)CC2(C)C)cc1OC (stereo not drawn),-1.0
Cc1ccccc1NC(=S)N(Cc1cccs1)C1CCCC1,0.3
S=C(c1cn(Cc2ccc(Br)cc2)c2ccccc12)N1CCOCC1,-0.6
O=S(=O)(c1ccccc1)[C@@]1(c2ccccc2)C[C@@H]2ON=C(c3cccc(-c4ccccc4)c3)[C@@H]2C1,-0.4
Cc1ccc(C2CC(=O)N3CN(c4ccc(Br)cc4)CSC3=C2C#N)o1 (stereo not drawn),-1.3
O=C(CN1CCC(n2nnc3cc(C(F)(F)F)ccc32)CC1)Nc1ccc2c(c1)OCCO2,0.6
CCOc1ccc(S(=O)(=O)N2CCC(C(=O)NCc3cccnc3)CC2)cc1,-2.4
Cc1ccnc(NC(=O)CNC(=O)c2ccccc2Br)c1,-0.8
Cc1cc(C)cc(C(=O)NCCCN2CCOCC2)c1,-5.2
Cc1ccc(C(=O)NC(=S)NCC2CCCO2)cc1Br (stereo not drawn),-1.5
Cc1ccccc1N=C1SCCN1C(=O)CN1C(=O)NC2(CCCC2)C1=O,0.0
C/C(=N\N=C1\NC(=O)C(CC(=O)Nc2ccc(Cl)cc2)S1)c1ccco1 (stereo not drawn),-0.1
CCCS(=O)(=O)c1c(S(=O)(=O)CCC)c2c(N)cccn2c1C(=O)c1ccc(F)cc1,-1.4
CCOC(=O)[C@@H]1[C@H]2COc3cc(OC)ccc3[C@@H]2N2C(=O)N(c3ccccc3)C(=O)[C@@]12C,-1.8
CCOC(=O)C(C(=O)Nc1nccs1)C1CCCCC1 (stereo not drawn),-1.2
Cn1c2ccccc2c(=O)c2c(=O)n(C3CCCCC3)c(-c3cccs3)nc21,0.1
COc1ccc(N2C(=O)CC(NCCNc3ccc([N+](=O)[O-])cn3)C2=O)cc1 (stereo not drawn),0.4
Cc1cc(NC(=O)COC(=O)c2ccc(S(=O)(=O)N3CCCc4ccccc43)cc2)no1,0.8
Cc1nc2ccccn2c1/C(O)=C1\C(=O)C(=O)N(CCN2CCOCC2)C1c1ccncc1 (stereo not drawn),-2.2
Cc1nn(CC(=O)N(C)C2CCS(=O)(=O)C2)c(C)c1S(=O)(=O)N(C)C (stereo not drawn),0.2
CC(=O)c1ccc(NC(=O)c2ccc(COc3ccccc3[N+](=O)[O-])o2)cc1,-1.1
Cc1ccccc1OC1C(=O)N(Cc2ccc3c(c2)OCO3)C1c1sccc1C (stereo not drawn),-0.6
# (list continues)
SMILES,STK33 inh
CCOC(=O)C1=C(C)NC2=C(C(=O)CC(C)(C)C2)C1c1cccc(C)n1 (stereo not drawn),-1.8
COc1ccccc1N1CCN(c2nccc(C)n2)CC1,-0.1
CC(c1ccncn1)N(C)C(=O)c1ccc2oc(Cc3ccccc3)nc2c1 (stereo not drawn),-3.4
O=C(NCc1ccccc1)c1onc(CSc2ccc(Cl)cc2)c1C(=O)NCc1ccccc1,0.5
COCCNC(=O)CN(C(=O)CCC(=O)Nc1ccccn1)c1ccccc1F,-0.6
COc1ccc(CCNC(=O)/C(=C/c2cccnc2)NC(=O)c2ccccc2)cc1OC,0.7
O=C(N/N=C1\SCC(=O)N1CCc1ccccc1)c1cccs1,-0.7
CN(C(=O)CSc1nc2ccccc2n1CCc1ccccc1)C1CCS(=O)(=O)C1 (stereo not drawn),1.5
COCCn1c(SC(C)C(=O)Nc2ccc3c(c2)OCCO3)nc2ccccc2c1=O (stereo not drawn),-0.7
CCOc1ccc(NC(=O)CC)cc1,-1.9

# An excerpt from above in order of SMILES length, high to low:
SMILES,STK33 inh
COc1ccc(CCNC(=O)/C(=C/c2cccnc2)NC(=O)c2ccccc2)cc1OC,0.7
CCOC(=O)C1=C(C)NC2=C(C(=O)CC(C)(C)C2)C1c1cccc(C)n1 (stereo not drawn),-1.8
COCCNC(=O)CN(C(=O)CCC(=O)Nc1ccccn1)c1ccccc1F,-0.6
CCOc1ccc(NC(=O)CC)cc1,-1.9

# Later entries:
SMILES,STK33 inh
CC(CCc1ccccc1)NC(=O)COC(=O)CC1CC2CCC1C2 (stereo not drawn),-2.2
CCN(CC)C(=O)C1CC(=O)N(c2ccc(F)c(Cl)c2)C1 (stereo not drawn),-0.1
Cc1cc(SCC(=O)c2cccs2)nc2c(C)cccc12,1.2
C/C(=N\NC(=O)Cc1ccccc1)c1ccc(Cl)s1,-0.1
Cc1cc(/C=C(\C#N)C(=O)NCc2ccco2)c(C)n1-c1ccc(C(=O)O)cc1,0.0
Cc1ccc2c(Cl)cc(Cl)c(OCC(=O)Nc3cc(S(=O)(=O)N(C)C)ccc3C)c2n1,0.1
O=C(CCSCc1ccccc1Cl)NC1CCCC1,0.0
CCO[C@@H]1OC(C(=O)N2CCN(Cc3ccc4c(c3)OCO4)CC2)=C[C@H](c2ccc3c(c2)OCO3)[C@H]1CCCO,-0.6
COc1ccc(CNC(=O)C(c2ccc(C)cc2)N(Cc2cccs2)C(=O)c2ccc3c(c2)OCCO3)cc1 (stereo not drawn),0.8
COC(=O)c1cc(NC(=O)CSc2nnc(N)s2)ccc1Cl,1.4
CC1Cc2cc(/C(O)=C3\C(=O)C(=O)N(Cc4ccncc4)C3c3ccccc3F)ccc2O1 (stereo not drawn),-2.4
COCCn1c(SCC(=O)c2ccc3c(c2)OCCO3)nnc1-c1ccco1,-1.2
COc1ccccc1NCCC(=O)OCC(=O)Nc1ccc(Cl)cn1,-1.5
Cc1cc(N2CCN(c3nc(-c4ccccc4)cs3)CC2)c2ccccc2n1,-1.4

# Reformatted with the structure last: 2 of the compounds above.
STK33 inh | Compound
-2.4 | CC1Cc2cc(/C(O)=C3\C(=O)C(=O)N(Cc4ccncc4)C3c3ccccc3F)ccc2O1 (stereo not drawn)
-1.5 | COc1ccccc1NCCC(=O)OCC(=O)Nc1ccc(Cl)cn1
